Vaccinia mCherry – vaccinia inhibition (mCherry reporter); Vaccinia virus mCherry reporter infection, fluorescence; about a quarter of the inactives have no number; hit rate 0.63% among 310,000; Potency, µM (top dose mostly 36.5 µM), for inactives: at the highest dose activity change, negative = inhibition, most hits filed as inhibitors; AID 720579; active = well fitted inhibition curve with a large enough effect; inconclusive = small, poorly fitted or top-dose-only effect; inactive = no such curve, though single readings can be large or run the other way; tested in A549 cells; note: nearly all actives have a fitted effect of over 35% in size; inactives centre near -10
VACV Venus inh – vaccinia inhibition (Venus reporter); Vaccinia virus Venus reporter expression, fluorescence; hit rate 0.46% among 330,000; Potency, µM (top dose mostly 36.5 µM), for the others: at the highest dose activity change, negative = inhibition, hits mostly inhibitors; active means well fitted inhibition curve with a large enough effect; inconclusive means small, poorly fitted or top-dose-only effect; inactive means no such curve, though single readings can be large or run the other way; tested in A549 cells; note: nearly all actives have a fitted effect of over 30% in size; inactives centre near -10
* = called active by the depositor; i = inactive; u = inconclusive; x = not tested or not shown; & = joins results of further samples; [ ] = another dose, or the depositor's remark. % is set by controls: 0 for no effect and ±100 for the full control effect; potency is the fitted concentration of half-maximal effect.

Each structure is followed by: Vaccinia mCherry | VACV Venus inh
- CCOc1ccc(C(=O)NCCn2cc(SCC(=O)Nc3ccc4c(c3)OCCO4)c3ccccc32)cc1
  -27% | -20%
- CC1CCc2c(sc3nc(CSc4nnnn4C)[nH]c(=O)c23)C1 (configuration not stated)
  -5% | -12%
- Cc1ccc(-n2c(SCc3cc(=O)n4ccsc4n3)nnc2-c2cccnc2)c(C)c1
  i | -10%
- Cc1ccc(-c2[nH]c3ccccc3c2SCCNC(=O)c2ccc(S(=O)(=O)N3CCOCC3)cc2)cc1
  u | u
- Cc1cc(C)n(CC(=O)N/N=C/c2ccc3c(c2)OCO3)n1
  -26% | -6%
- CCc1ccc(C2=CC(c3c(F)cccc3Cl)n3c(nc4ccccc43)N2)cc1 (configuration not stated)
  3% | 44%[activator]
- COC(=O)C1=C(C)NC(=S)NC1c1ccc(OC(=O)c2ccco2)cc1 (configuration not stated)
  -21% | -8%
- COC(=O)CSc1nnc(CCc2ccccc2)n1C
  -3% | -5%
- O=C(O)C1C2OC3C(OC(=O)C31)C2Br (configuration not stated)
  i | -1%
- Cc1cccc(CN2CCc3c([nH]c4ccccc34)C2C(C)(C)C)n1 (configuration not stated)
  -30% | -2%
- CCCCCCCCCNC(=O)[C@H](NC(=O)COc1ccccc1)[C@@H]1NC(C(=O)OC)C(C)(C)S1 (some centres not stated)
  -1%&-21% | -18%&-15%
- O=C(Nc1nnc(C2CCCC2)s1)C1CCN(S(=O)(=O)c2ccc(Cl)cc2)CC1
  i | -2%
- Cc1c(Cl)cccc1NC(=O)CCOc1ccccc1
  -6% | 8%
- CCN1CCN=C1Nc1ccccc1
  i | -10%
- CC12CCCCC1(O)[N+](=O)C1=C(CCCC1)N2[O-] (configuration not stated)
  -15% | -6%
- CCOC(=O)CNc1c(-c2ccc(OC)cc2)nc2ccc(Cl)cn12
  29% | 0%
- CCOc1ccccc1C(=O)NCC(=O)OCC(=O)N1C(C)CCCC1C (configuration not stated)
  -4% | -24%
- O=C(NCC(c1cccs1)N1CCOCC1)c1ccc(Cl)c([N+](=O)[O-])c1 (configuration not stated)
  -8% | 0%
- O=C(NCCN1CCOCC1)N1c2ccccc2Sc2ccccc21
  -10% | -5%
- CCCCNC(=S)NNC(=O)c1c(Cl)c(C)nn1C
  i | -12%
- Cc1ccc(C(=O)NCCc2nnc3n2CCN(C(=O)c2ccnc(Cl)c2)CC3)cc1
  0% | 2%
- COc1ccc(OC)c(NC(=O)CCn2cccn2)c1
  -5% | -7%
- COCCNC(=O)c1cc(-c2ccccc2OC)on1
  3% | -16%
- Cc1cc(OCC(=O)N(C)Cc2ccccc2)ccc1Cl
  -19% | -14%
- O=C(CC(c1ccccc1)C1CCCCC1=O)c1ccco1 (configuration not stated)
  x | -22%
- Cc1cc(C)cc(NC(=O)C2CC(=O)N(c3ccccc3)C2)c1 (configuration not stated)
  6% | 5%
- CCN(CC)c1ccc(/C=C(\C#N)C(=O)NCc2ccccc2)cc1
  u | -14%
- O=C(COC(=O)c1cc(Br)ccc1O)c1ccc(F)cc1
  i | -14%
- CCCCN(C)CCCNC(=O)Cn1ncc2c3ccccc3n(Cc3ccccc3F)c2c1=O
  u | u
- O=C(N/N=C/c1ccsc1)c1ccccn1
  -3% | -11%
- CSc1ccc(CN(C)C(=O)CSCC(=O)Nc2ccc(C)cc2)cc1
  i | -14%
- CC(=O)OCCNC(=O)Cn1cnc2c1c(=O)n(C)c(=O)n2C
  x | -10%
- CC(C)(C)C1CCc2c(sc(N)c2C(N)=O)C1 (configuration not stated)
  -25% | -14%
- COc1ccc(C2/C(=C(/O)c3ccc(F)cc3)C(=O)C(=O)N2c2ccccn2)cc1OC (configuration not stated)
  i | -11%
- O=C(Nc1ncccc1O)c1ccc(S(=O)(=O)NCc2ccco2)cc1
  i | -26%
- CC1=C(C(=O)OC(C)C)C2(O)C(=O)c3ccccc3C2(O)N1 (configuration not stated)
  4% | 9%
- Cc1ccc2oc(-c3ccccc3C(=O)O)cc(=O)c2c1
  -12% | -8%
- O=C(CSc1nc(-c2ccc(Cl)cc2)cs1)Nc1cccc([N+](=O)[O-])c1
  -28% | -26%
- O=C(Nc1ccc2[nH]c(=O)[nH]c2c1)c1c(F)c(F)c(F)c(F)c1F
  -15% | -10%
- COc1ccc(OC2CCN(S(=O)(=O)c3ccc(OC)cc3)CC2)cc1
  6% | 9%
- Cn1cc(-c2csc(C(O)(c3ccccc3)C(F)(F)F)n2)cn1 (configuration not stated)
  8% | -2%
- CC1(C(=O)NS(=O)(=O)c2ccccc2C(F)(F)F)CCN1C(=O)c1cccc(F)c1 (configuration not stated)
  40%[activator] | -2%
- COc1ccccc1NC(=S)N(Cc1ccccn1)Cc1ccccc1Cl
  8% | 10%
- COc1ccccc1C(=O)OCCNC(=O)Cn1cnc2c1c(=O)n(C)c(=O)n2C
  -10% | -8%
- O=c1c2ccccc2sn1-c1nccs1
  -7% | -1%
- CCOC(=O)NC(=O)C(=CNNc1ncc(C(F)(F)F)cc1Cl)C(=O)NC(=O)OCC
  -19% | -2%
- COc1ccc(/C=C2\SC(=S)N(CCCC(=O)Nc3cc(C)on3)C2=O)cc1OC
  -2% | 0%
- O=c1c2ccccc2cnn1Cc1n[nH]c(=S)n1-c1ccc(Cl)cc1
  i | 3%
- CC1(C(=O)NS(=O)(=O)c2ccccc2Cl)CCN1C(=O)COc1ccc(Cl)cc1 (configuration not stated)
  39%[activator] | -1%
- O=C(Nc1ccc(F)c(Cl)c1)C1CCN(S(=O)(=O)c2cccnc2)CC1
  i | -21%
- Cc1cccc(N2CC(C(=O)Nc3ccc4c(c3)OCCO4)CC2=O)c1C (configuration not stated)
  i | -9%
- CCOc1ccc(-c2c(C(=O)N/N=C(\C)c3cccnc3)nnn2-c2nonc2N)cc1
  -3%[7.34 µM] | 0%[7.34 µM]
- COc1ccc(-c2nc(SCC(=O)N3CCN(c4ccc(F)cc4)CC3)n[nH]2)cc1
  -17% | -10%
- CC(C)[C@H](N)c1cn([C@@H](CO)C(=O)N2CCNCC2)nn1
  i | 7%
- Cc1cc(NC(=O)COC(=O)c2cc(S(=O)(=O)N3CCOCC3)ccc2N2CCCCC2)no1
  x | -11%
- COc1ccc(C2C(C(=O)NCCN3CCOCC3)c3ccccc3C(=O)N2C2CCCCC2)cc1 (configuration not stated)
  -19% | u
- O=C(Nc1ncc([N+](=O)[O-])s1)c1cccs1
  -4% | -16%
- Cn1nnnc1SCC(=O)N1CCc2ccccc2C1
  -9% | -1%
- O=C(N1CCCCC1)C12CC3CC(CC(C3)C1)C2
  x | -15%
- CCOC(=O)c1ccc(CN(Cc2ccc(OC)cc2)S(=O)(=O)c2cccc(C(F)(F)F)c2)cc1
  -15% | -12%

(more compounds)
Each structure is followed by: Vaccinia mCherry | VACV Venus inh
- NC(=O)C1CCN(C(=O)Cn2c(-c3cccs3)cc3ccccc32)CC1
  -5% | 3%
- Cc1ccc(C2(O)CC(C)N(C)CC2C)cc1 (configuration not stated)
  x | -9%
- O=C(O)C1=CC[C@@H](c2ccc(Cl)cc2)N(S(=O)(=O)c2ccc(Cl)cc2)[C@H]1c1ccccc1
  i | -20%
- COc1ccc(CC(=O)Nc2cc(S(=O)(=O)N3CCOCC3)ccc2N2CCCC2)cc1OC
  -13% | -10%
- COCCCNC(=O)CN(C1CCCCC1)S(=O)(=O)c1ccc(C)cc1
  -17% | -11%
- O=C1NC(=O)C2(CCCCC2)N1
  -4% | -12%
- CCOC(=O)C1CCN(Cc2cc(=O)n3c(-c4ccccc4)csc3n2)CC1
  7% | -19%
- CCc1ccc(-n2c(=O)c3c4c(sc3n(CC(=O)c3ccc(F)cc3)c2=O)CCC4)cc1
  -6% | -20%
- O=C(c1ccncc1)N1CCCC(N2CCN(c3ccc(F)cc3)CC2)C1 (configuration not stated)
  -9% | -12%
- CCOC(=O)c1ccc(NC(=O)c2nc[nH]c2C(=O)NC[C@@H](C)O)cc1
  -24% | -20%
- O=c1cc(CO)oc(C(Nc2ccccn2)c2ccc(C(F)(F)F)cc2)c1O (configuration not stated)
  x | -3%
- COc1ccc(N2C(=O)CC(Sc3nnnn3-c3ccc(F)cc3)C2=O)cc1 (configuration not stated)
  -28% | -7%
- CC(=O)Nc1cccc(C(=O)OCC(=O)N(c2ccccc2)C2CCS(=O)(=O)C2)c1 (configuration not stated)
  i | -12%
- Cc1cc(OCC(=O)OCC(=O)NC2CCCC2)ccc1Cl
  -17% | -7%
- COc1cccc(C(=O)Nc2ccc(-c3nnc(-c4ccco4)o3)cc2)c1
  x | u
- CCC(C)N(C(=O)CSc1nnc(COc2ccccc2F)n1N)C1CCS(=O)(=O)C1 (configuration not stated)
  i | -7%
- OC1CCCN(c2ncnc3c2nnn3Cc2c(F)cccc2Cl)C1 (configuration not stated)
  -4% | 3%
- O=C(NCCc1ccccc1)c1cc(-c2ccccc2)nc2n[nH]c(-c3ccccc3)c12
  u | -27%
- CCn1cc(Br)c(C(=O)Nc2ccc(OC)cc2)n1
  -12% | -7%
- CCC(=O)Nc1ccc(-c2ccc(NC(=O)CC)c(OC)c2)cc1OC
  u | -15%
- CC(Oc1ccc2ccc(=O)oc2c1)C(=O)N1CCOCC1 (configuration not stated)
  -17% | -2%
- CC1(C)COCN1S(=O)(=O)c1ccc(C(=O)Nc2nnc(-c3ccc(Cl)s3)o2)cc1
  u | u
- CCC(=O)NC(c1ccccc1OC)c1ccc2cccnc2c1O (configuration not stated)
  u | u
- COCCCNP1(=O)OCC(C)([N+](=O)[O-])CO1 (configuration not stated)
  -12% | -3%
- O=S(=O)(NC1CCCCC1NCc1ccco1)c1ccccc1 (configuration not stated)
  -1% | -21%
- CC(C)[C@H](NS(=O)(=O)c1ccccc1)C(=O)OCc1cc([N+](=O)[O-])cc2c1OCOC2
  -3% | -16%
- CCc1nnc(NS(=O)(=O)c2ccc(N/C=C\C(=O)c3cccc4ccccc34)cc2)s1
  -13% | -6%
- CC(C)OC(=O)c1ccc(NCc2cc(O)ccc2O)cc1Cl
  4.5µM* | 3%
- CCOc1ccc(-c2cc(C(=O)NCc3ccc(F)cc3)[nH]n2)c(C)c1
  -10% | -20%
- Cc1oc(-c2ccccc2)nc1C(=O)O
  i | -16%

Whole records, looked up by structure. Order of values: Vaccinia mCherry | VACV Venus inh
CC(=O)Nc1cccc(C(=O)OCC(=O)N(c2ccccc2)C2CCS(=O)(=O)C2)c1 (configuration not stated) across the screens: i | -12%
O=c1cc(CO)oc(C(Nc2ccccn2)c2ccc(C(F)(F)F)cc2)c1O (configuration not stated) across the screens: x | -3%
O=S(=O)(NC1CCCCC1NCc1ccco1)c1ccccc1 (configuration not stated) across the screens: -1% | -21%
Cc1ccc(C2(O)CC(C)N(C)CC2C)cc1 (configuration not stated) across the screens: x | -9%
Cc1oc(-c2ccccc2)nc1C(=O)O across the screens: i | -16%

Following part:
Each structure is followed by: Vaccinia mCherry | VACV Venus inh
- COc1cc(/C=C/C(=O)OCC(=O)N2CCN(S(=O)(=O)c3ccc(C)cc3C)CC2)ccc1O
  u | u
- C#CCOCCOCCOCCNc1nc(N2CCN(C(=O)[C@H](CCC(=O)O)n3cc(CN)nn3)CC2)nc(N2CCN(C(=O)[C@H](CCCCN)n3cc([C@@H](N)CC(N)=O)nn3)CC2)n1
  -13% | -8%
- O=c1c2ccccc2nc(-c2ccccc2)n1Cc1ccccc1
  i | -8%
- CCOC(=O)N1CCN(C(=O)c2ccc3c(c2)sc2nc(-c4ccccc4)cn23)CC1
  x | -20%
- Cc1ccc(NC(=O)C(=O)NCc2ccc(/C=C(/C#N)C(=O)NCc3cccnc3)o2)cc1C
  -1% | -10%
- CNC(=O)c1c(C)nn(-c2ccc(F)c(Cl)c2)c1-c1cc(C)on1
  -10% | -7%
- Cc1ccc(NC(=O)CN2CCc3ccccc3C2)cc1F
  -16% | -9%
- CN(C(=O)c1cccc(NC(=O)Cc2ccc(NC(=O)C3CCCN(C(=O)C4CCC4)C3)cc2)c1)C1CCCCC1 (configuration not stated)
  i | -3%
- CCOC(=O)Nc1ccc2c(CN(C)Cc3ccc(F)cc3)cc(=O)oc2c1
  10% | 11%
- Cc1cccc(NC(=O)COC(=O)c2ccc3c(=O)n4c(nc3c2)CCC4)c1
  -9% | 2%
- Cc1ccc2nc(-c3ccc(C)c(NC(=O)COc4ccccc4Cl)c3)oc2c1
  -3% | -12%
- CCCSc1cc(NCCOC(=O)CCC)c([N+](=O)[O-])c2nonc12
  -23% | -13%
- Cc1nc2ccccc2c(=O)n1/N=C/c1cn[nH]c1-c1ccccc1
  i | -22%
- O=C(N/C(=C\c1ccco1)C(=O)N1CCOCC1)c1ccc([N+](=O)[O-])cc1
  -6% | 1%
- CCOc1cc(C#N)c(NC(=O)c2cccc(S(=O)(=O)N3CCOCC3)c2)cc1OCC
  -1% | -11%
- CCOC(=O)c1ccc(NC(=S)N2CCCC(C)C2)cc1 (configuration not stated)
  -13% | -7%
- COc1ccccc1/C=C/C(=O)NCc1ccccn1
  i | -19%
- CCN(CC)CCCNC(=O)Cn1ncc2c(=O)oc3ccc(C)cc3c21
  27% | 8%
- COc1ccc(C(=O)NCC(=O)OCC(=O)c2ccc(Cl)cc2)cc1OC
  i | -9%

Screening data: PubChem BioAssay, National Center for Advancing Translational Sciences (NCATS)

Random draw from the library. Share with any hit: about 0.87%.
